Screening data as filed in PubChem.
Rango dissoc inh: prevents RanGTP from dissociating the Rango-importin beta complex; Biochemical FRET Rango-importin beta, RanGTP-induced dissociation; actives 0.071% (n = 340,000); Potency, µM (titrated, usually from 46.1 µM), without a hit: at the highest dose activity change, negative = inhibition; active means falling FRET ratio curve, often poorly fitted, with flat reads before Ran was added; inconclusive means other falling curves, or compound fluorescence or quenching; inactive means flat or rising ratio curve;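 also: potency is read from the fitted curve at half-maximal effect; % of control where 0% means no effect; nearly all actives have a fitted effect of over 45% in size; -100% = wells without RanGTP and RCC1; the record marks most hits as doubtful in a second field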
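Compounds sat 5 min at room temperature with 0.1 uM Rango biosensor plus 0.25 uM importin beta, then FRET pre-read. RanGTP-RCC1 (0.6 uM Ran, 2mM GTP, 0.2 uM RCC1) added for 45 min, and the CFP/YFP post-read measured blocked complex dissociation.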
miR-21 reporter: raises the signal of a miR-21 reporter. HeLa miR-21 FLuc reporter, luciferase, 48 h. Potency, µM (titrated, usually from 38.3 µM), without a hit: at the highest dose reporter change, positive = more light. 340,000 tested, under 10 active. AID 2288; active = well fitted rising curve with a large enough effect; inconclusive = small, poorly fitted or top-dose-only effect; inactive = no such curve, though single readings can be large or run the other way;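 also: % of control where 0% means no effect; miR-21 action dims this reporter so a rising signal means less miR-21 action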
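HeLa miR-21-FLuc reporter line, endogenous miR-21; 2000 cells/well in DMEM/10% FBS; compound titration up to ~40uM final, 48 h, 37 degree Celsius; luciferase detection reagent, 15 min lysis, CCD luminescence.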
GLA inh pH 4.5: alpha-galactosidase A (human) inhibition, pH 4.5; AID 1467; purified enzyme, 4-MU-alpha-Gal fluorescence, pH 4.5; activity change, negative = inhibition, % at 105 µM; 230,000 tested, under 10 active; P06280; inconclusive = small, poorly fitted or top-dose-only inhibition, or a rising curve; inactive = flat fitted curve, though single readings scatter; no compound was filed as active;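 also: 0% = full activity with enzyme and -100% = basal without enzyme; dose as in the result columns while the protocol names 77 µM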
Rango complex inh: Rango-importin beta binding inhibition. Q14974. Potency, µM (series often up to 92.2 µM), for the others: top-dose inhibition of complex formation. actives 0.031% (n = 340,000). Rango CFP/YFP FRET sensor + importin beta, 45 min; active = rising FRET ratio curve, often small or poorly fitted; inconclusive = mostly compound fluorescence or quenching in the first reads; inactive = flat curves in all reads;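 also: potency is read from the fitted curve at half-maximal effect; 0% = DMSO wells and 100% = buffer wells lacking importin beta; nearly all actives have a fitted effect of over 15% in size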
Target sequence (Q14974 whole entry, looked up): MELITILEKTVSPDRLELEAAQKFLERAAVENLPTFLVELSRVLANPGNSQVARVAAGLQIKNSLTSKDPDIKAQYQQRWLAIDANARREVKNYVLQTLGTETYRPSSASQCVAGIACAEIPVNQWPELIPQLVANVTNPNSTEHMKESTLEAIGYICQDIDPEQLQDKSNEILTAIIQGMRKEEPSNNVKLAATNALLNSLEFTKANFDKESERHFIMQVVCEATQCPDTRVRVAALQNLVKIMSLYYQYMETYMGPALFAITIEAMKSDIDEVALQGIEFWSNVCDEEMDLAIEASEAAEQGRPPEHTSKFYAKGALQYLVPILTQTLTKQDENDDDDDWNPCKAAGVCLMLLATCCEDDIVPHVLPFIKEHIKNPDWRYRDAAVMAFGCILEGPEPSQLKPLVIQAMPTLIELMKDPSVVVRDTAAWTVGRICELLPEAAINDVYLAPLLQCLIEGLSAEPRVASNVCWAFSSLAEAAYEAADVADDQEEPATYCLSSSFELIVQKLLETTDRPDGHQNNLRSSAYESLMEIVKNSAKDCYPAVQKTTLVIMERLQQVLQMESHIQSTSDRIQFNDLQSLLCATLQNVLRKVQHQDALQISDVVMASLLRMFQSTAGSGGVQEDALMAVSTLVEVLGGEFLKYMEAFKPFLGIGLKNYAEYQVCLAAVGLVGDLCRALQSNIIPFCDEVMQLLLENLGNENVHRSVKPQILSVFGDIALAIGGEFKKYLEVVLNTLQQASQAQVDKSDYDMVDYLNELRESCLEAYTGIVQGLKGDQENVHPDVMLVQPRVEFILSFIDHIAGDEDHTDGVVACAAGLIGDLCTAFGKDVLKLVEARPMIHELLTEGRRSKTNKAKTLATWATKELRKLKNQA
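Inhibition scored from the CFP 486 nm/YFP 530 nm FRET ratio 45 min after adding 0.125 microM importin beta to 50 nM Rango biosensor preincubated 5 min with compound (room temperature, PBS with DTT, Tween-20, BSA). No-importin wells as positive control.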
The depositor's hits bear a star; ? = inconclusive; · = no result given; & = joins results of further samples.

#	Molecule	Rango dissoc inh	miR-21 reporter
1	CC(C)C(C(=O)O)N1C(=O)/C(=C/c2cccn2C)SC1=S (stereo not given)	?	-11.0%
2	Cc1ccc(NS(=O)(=O)c2cc(NC(=O)c3ccc4c(c3)NC(=O)CS4)ccc2C)c(C)c1	13.0%	?
3	CCOC(=O)C(=O)c1cn(C2OCC(OC(C)=O)C(OC(C)=O)C2OC(C)=O)c2ccccc12 (stereo not given)	25.3%	-0.1%
4	CCOc1ccc(S(=O)(=O)N2CCC(C(=O)NCc3cccnc3)CC2)cc1Cl	16.8%	-5.7%
5	O=C(CCNC(=O)c1ccco1)Nc1ccccc1OC(F)F	11.6%	-0.6%
6	Cc1cccc(NC(=O)CSc2nc3ccccc3nc2N2CCCC2)c1	-19.7%	14.9%
7	C/C(=N\NC(=O)c1ccoc1C)c1ccc(Cl)s1	-1.3%	-41.6%
8	COc1cccc(NC(C)=[N+](C)CCNS(=O)(=O)c2ccc(Cl)cc2)c1	2.1%	-43.8%
9	COCCNC(=O)CN1CCN(Cc2cccc(Cl)c2)C1=O	8.2%	-0.1%
10	Cc1cccc(N2CCCn3c2nc2c3c(=O)[nH]c(=O)n2C)c1	1.9%	-2.5%
11	O=C(CCn1cnc2ccccc21)N=Nc1c(O)[nH]c2ccccc12	-16.4%	-1.7%
12	CS(=O)(=O)N(CC(=O)Nc1ccc(S(=O)(=O)N2CCOCC2)cc1)c1cccc(F)c1	8.4%	4.5%
13	COc1ccccc1NC(=O)c1c(C)oc2c1CCCC2	-2.6%	-24.6%
14	Cc1sc2nc(CSC(C)C(=O)N(C)CC(=O)Nc3ccccc3C(F)(F)F)[nH]c(=O)c2c1C (stereo not given)	-1.9%	·
15	COC(=O)Cc1cc(=O)[nH]c(Nc2nc3ccccc3o2)n1	-24.8%	-19.0%

#	GLA inh pH 4.5	Rango complex inh
1	5.4	?
2	-14.1	0.2%
3	0.0	1.8%
4	·	-0.6%
5	·	0.8%
6	·	?
7	·	3.2%
8	·	-0.1%
9	-3.5	4.2%
10	·	-1.4%
11	2.9	0.0%
12	2.5	0.1%
13	5.6	-0.5%
14	·	?
15	5.0	?

(listing goes on)
#	Molecule	Rango dissoc inh	miR-21 reporter
16	CCOC(=O)C1C(=O)NC(C(=O)OCC)(C(=O)OCC)C1CC (stereo not given)	5.7%	·
17	COc1ccc2nc(C)cc(SCC(=O)N/N=C/c3cccc4ccccc34)c2c1	0.7%	18.5%
18	COc1ccc(NC(=O)c2ccc(Cl)c(S(=O)(=O)N3CCc4ccccc4C3)c2)cn1	11.1%	21.8%
19	Cc1cc(NC(=O)CSc2nnc3c(C)cc4c(C)ccc(C)c4n23)no1	5.5%	12.7%
20	Cc1ccc(S(=O)(=O)NC(=O)c2ccc(Br)o2)cc1	-16.4%	-6.5%
21	COc1ccc(C(=O)Nc2ccccc2C(=O)NCCCn2ccnc2)cc1	2.7%	-6.2%
22	CSc1ccc(S(=O)(=O)NCC(=O)OCC(=O)N2CC(C)CC(C)C2)cc1[N+](=O)[O-] (stereo not given)	14.5%	·
23	CCN(C[C@H]1N[C@@](Cc2ccccc2)(C(=O)OC)[C@H]2C(=O)N(C)C(=O)[C@@H]12)C(=O)COC	24.6%	·
24	CCOC(=O)c1ccc2c(c1)N(CC)C(=O)c1ccccc1S2	-6.4%	-6.0%
25	O=C(OCCN1CCCCC1)c1cccc(Cl)c1	11.1%	-1.0%
26	CCCCNC(=O)c1ccc2c(SCC(=O)O)c3c(nc2c1)CCCC3	-7.5%	-9.1%
27	Cc1ccccc1-n1nnnc1SC(C)C(=O)NC1CCCc2ccccc21 (stereo not given)	4.6%	0.7%
28	O=C(CN1CCN(Cc2ccccc2)CC1)Nc1ccc([N+](=O)[O-])cc1C(=O)Nc1ccccc1F	-8.9%	-6.7%
29	O=[N+]([O-])c1cccc(COc2cccc(CN3CCCCC3)c2)c1	6.8%	·
30	O=C(NCCCN1CCCC1=O)c1ccc2c(=O)n(-c3ccccc3F)c(=S)[nH]c2c1	-20.8%	1.5%

#	GLA inh pH 4.5	Rango complex inh
16	·	12.0%
17	-3.2	-0.3%
18	-3.2	?
19	-4.2	1.3%
20	-17.5&-0.1	-3.4%
21	6.3	2.2%
22	·	-2.5%
23	·	5.1%
24	·	1.7%
25	·	1.1%
26	3.4	2.7%
27	-8.1	0.1%
28	-12.7	-0.2%
29	·	-3.9%
30	6.6	-1.5%

Continuation.
#	Molecule	Rango dissoc inh	miR-21 reporter
31	CC(NC(=O)c1ccc(Br)o1)C1CCCO1 (stereo not given)	-4.7%	-0.1%
32	CCCN1CCN(C(=O)C2CCN(S(=O)(=O)c3c(C)noc3/C=C/c3ccc(C)cc3)CC2)CC1	-1.2%	-1.2%
33	O=C1NC(c2ccc(Cl)c([N+](=O)[O-])c2)Nc2ccccc21 (stereo not given)	28.1%	20.9%
34	COc1ccc(S(=O)(=O)c2c[nH]c(=S)[nH]c2=O)cc1Cl	4.3%	-1.9%
35	Cc1cccc(N2CCN(C(=O)CCC(=O)N3CCOc4ccc(Cl)cc43)CC2C)c1 (stereo not given)	0.3%	23.9%
36	N#Cc1ccc(OCC(=O)NNC(=S)NC2CCCCC2)cc1	8.9%	·
37	CC1(C)CC(=O)N(CC(=O)NCc2ccc(F)cc2)c2ccccc2S1(=O)=O	-15.3%	-9.3%
38	Cc1c(NC(=O)CSc2ccc3ccccc3n2)c(=O)n(-c2ccccc2)n1C	-8.6%	·
39	COCCCNC(=S)NNC(=O)c1cc(Cl)c(O)c(Cl)c1	10.5%	6.6%
40	O=S1(=O)CCN(Cc2ccccn2)CC1	-5.8%	-0.4%
41	COc1ccc(C)cc1NC(=O)CN1C(=O)c2cccc3cccc1c23	?	-5.6%
42	CCOc1ccc(S(=O)(=O)N2CCOCC2)cc1NC(=O)C1=COCCO1	-11.9%	·
43	Cc1ccc(C)c(N2CCN(C(=O)CCc3nc(-c4cccc(Cl)c4)no3)CC2)c1	17.8%	·
44	COc1ccc(C(=O)NC(=O)COC(=O)C2COc3ccccc3O2)cc1 (stereo not given)	0.2%	-3.5%
45	CC(C)Nc1ccc(C(CC(N)=O)NC(=O)c2ccc(Br)cc2)cc1[N+](=O)[O-] (stereo not given)	-2.1%	-18.7%

#	GLA inh pH 4.5	Rango complex inh
31	·	4.6%
32	·	-2.4%
33	4.9	3.9%
34	·	0.5%
35	·	2.9%
36	·	2.1%
37	1.1	1.9%
38	·	-0.1%
39	-1.9	0.8%
40	-0.8	2.4%
41	2.3	?
42	·	2.8%
43	·	-0.4%
44	11.3	2.4%
45	5.1	0.3%

Additional structures.
#	Molecule	Rango dissoc inh	miR-21 reporter
46	COc1ccc(SCC(=O)Nc2ccc(N3CCN(C)CC3)c(F)c2)cc1	12.5%	-16.3%
47	COc1ccc(C(=O)O)cc1S(=O)(=O)NC(C)C12CC3CC(CC(C3)C1)C2 (stereo not given)	-6.8%	·
48	CCOC(=O)C1CCN(S(=O)(=O)c2ccc(-c3cc(C(F)(F)F)n(C)n3)s2)CC1	5.3%	0.1%
49	COc1cc(CN(C(=O)c2cccs2)C2CCS(=O)(=O)C2)cc(OC)c1OC (stereo not given)	19.8%	-0.8%
50	Cc1ccc(CNc2cnccn2)cc1	-0.7%	-16.5%

#	GLA inh pH 4.5	Rango complex inh
46	5.2	-0.6%
47	·	3.2%
48	-10.3	-2.6%
49	·	1.3%
50	-2.8	-4.5%

A portion of the library, so the mix of outcomes need not match the whole.
